Source: PubChem BioAssay (National Center for Advancing Translational Sciences (NCATS))
VDR inhibitor = vitamin D3 receptor (human) inhibition; P11473; VDR-SRC2-3 peptide fluorescence polarization, 2 h; Potency, µM, without a hit: max response, negative = inhibition, hits mostly inhibitors; 400,000 compounds, 0.93% hits; active = well fitted inhibition curve with a large enough effect; inconclusive = small, poorly fitted or top-dose-only effect, or another doubt; inactive = no such curve, though single readings can be large or run the other way; note: series mostly up to about 120 µM
Target sequence (P11473 whole entry, looked up): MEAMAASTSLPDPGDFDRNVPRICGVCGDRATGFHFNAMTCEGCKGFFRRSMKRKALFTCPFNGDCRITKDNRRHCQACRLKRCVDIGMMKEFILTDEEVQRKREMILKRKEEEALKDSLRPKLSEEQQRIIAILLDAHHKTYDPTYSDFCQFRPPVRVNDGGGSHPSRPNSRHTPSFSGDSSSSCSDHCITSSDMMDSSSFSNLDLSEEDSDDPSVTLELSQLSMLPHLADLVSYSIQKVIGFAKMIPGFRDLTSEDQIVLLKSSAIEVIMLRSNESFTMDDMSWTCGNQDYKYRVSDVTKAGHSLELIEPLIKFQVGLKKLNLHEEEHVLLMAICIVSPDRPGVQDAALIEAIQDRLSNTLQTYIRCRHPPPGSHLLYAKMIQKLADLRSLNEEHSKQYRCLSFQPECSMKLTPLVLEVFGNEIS
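The screen uses fluorescence polarization to detect compounds that interfere with recruitment of the SRC2-3 coactivator peptide to VDR; plates are read after 2 h at room temperature.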
* marks the source's active call; other numbers are inactive results; ? = inconclusive. % is set by controls: 0 for no effect and ±100 for the full control effect; potency is the fitted concentration of half-maximal effect. Some of the compounds tested; count on the stated rates, not on these rows.

canonical_smiles	VDR inhibitor
CCOC(=O)C1=C(O)C(=O)N(CCCn2ccnc2)C1c1ccc(C)cc1 (centres undefined)	-6%
O=C(Cc1ccc(F)cc1)N1CCN=C1SCc1cccc([N+](=O)[O-])c1	-9%
COC(=O)c1cc(F)c(-n2cncn2)c(F)c1	2%
CC(=O)N1CCSc2ccc(S(=O)(=O)Nc3ccccc3C)cc21	-11%
CSc1ccc(S(=O)(=O)Nc2ccccc2C(=O)N2CCOCC2)cc1	-11%
COCCN(C(=O)C1CC(=O)N(Cc2ccc(C)cc2)C1)c1c(N)n(CC(C)C)c(=O)[nH]c1=O (centres undefined)	7%
CCCCn1c2ccc(F)cc2c2nnc(SCCN3CCOCC3)nc21	-21%
COc1ccc(NC(=O)C2CCC(=O)N2S(=O)(=O)c2ccc(C)cc2)cc1Cl (centres undefined)	7%
CN(CC(=O)Nc1cc(Cl)ccc1C#N)C1CCS(=O)(=O)C1 (centres undefined)	-10%
O=c1c(CCc2ccccc2)nc2cnc(N3CCNCC3)nc2n1CCc1ccccc1	?
Oc1oc(-c2ccccc2)nc1C=Nc1cccc2ccccc12	-1%
COc1ccccc1N1CCN(c2ncnc3c2nc2n3CCCC2)CC1	-6%
COc1ccc(N2CCN(S(=O)(=O)c3ccc(-c4coc(C)n4)cc3)CC2)cc1	3%
Cc1cc(/C=C2\SC(=Nc3ccccc3)NC2=O)c(C)n1-c1ccc(S(N)(=O)=O)cc1	15%
CC(=O)CSc1nc2c(c(=O)[nH]c(=O)n2C)n1CCCc1ccccc1	11%
Cc1ccc(NS(=O)(=O)c2ccc(N/N=C/c3ccncc3)c([N+](=O)[O-])c2)c(C)c1	-19%
Oc1c(CN2CCOCC2)cc(-c2ccccc2)cc1CN1CCOCC1	-7%
N#CNC(=Nc1ccccc1)SCc1ccc(C(=O)O)cc1	-12%
O=C1COc2ccc(C(=O)COC(=O)CNS(=O)(=O)c3cccc(F)c3)cc2N1	-11%
O=C(Nc1ccc(C(=O)O)cc1)Nc1ccc(F)cc1F	-13%
CSCCC(NS(=O)(=O)c1ccc(F)cc1)C(=O)NCc1ccc(S(N)(=O)=O)cc1 (centres undefined)	-23%
O=S(=O)(CCC1CCCCN1)c1ccccc1 (centres undefined)	7%
CC(C)(C)n1ncc2c(=O)n(CC(=O)N3CCCCCC3)cnc21	-4%
Cc1ccccc1-n1c(=O)n(Cc2ccc(C(=O)O)cc2)c(=O)c2[nH]cnc21	-16%
CCOC(=O)[C@H]1[C@H]2COc3ccc(C)cc3[C@@H]2N2C(=O)c3cc(F)c(F)cc3NC(=O)[C@@]12C	-9%
CCCN1CCC(NC(=O)Nc2ccc(F)cc2F)CC1	-4%
Cc1cc2c(sc3c(C)ccc(C)c32)c(C)n1	2%
COc1ccccc1NC(=O)Cn1c(=O)n(-c2ccc(C)cc2)c(=O)c2ccc(C(=O)NCc3ccco3)cc21	-10%
COc1ccc(NC(=O)c2ccc(-c3ccccc3Cl)o2)cc1	-4%
CC1(C)CC(=O)C2=C(C1)OC(/N=C/N1CCCC1)=C(C#N)C2c1ccccc1 (centres undefined)	-15%
CSC1=N/C(=C\c2ccccc2Cl)C(=O)N1N(C)C	-6%
O=C(CSc1ccc(F)cc1)NCC1(N2CCOCC2)CCCCC1	-5%
COc1ccc(-c2noc(CN(C)Cc3ccccc3)n2)c(OC)c1OC	21%
COc1ccc(OC)c(C(C)NC(=S)NC2CCCCC2)c1 (centres undefined)	-19%
Cc1ccc(C2CC(C(F)(F)F)n3nc(C(=O)NCc4c(C)nn(C)c4C)c(Cl)c3N2)cc1 (centres undefined)	-3%
Cc1ccc(C)c(CN2C(=O)c3ccccc3S(=O)c3ccc(C(=O)NCCC4=CCCCC4)cc32)c1 (centres undefined)	-15%
COC(=O)CSc1nnc(CNC(=O)c2cc(OC)cc(OC)c2)n1-c1ccc(F)cc1	-10%
Cc1cc2nc(-c3ccc(SCC(=O)N4CCOCC4)nc3)[nH]c2cc1C	14%
CN1CCc2c(sc3c2C(=O)NC(c2ccc(C(C)(C)C)cc2)N3)C1 (centres undefined)	-27%
Cc1ccc2nc(-c3ccc(Cl)c(NC(=O)COc4ccc(C(C)C)cc4)c3)oc2c1	-8%
COC(=O)CCCCCN1C(=O)NC(C2CC2)C(C(=O)OCc2ccccc2)=C1C (centres undefined)	-12%
Cc1nc(-c2ccc(F)cc2)c(CC(=O)N(C)CC(=O)Nc2ccc(F)cc2)s1	-17%
COc1ccccc1Nc1nc(-c2ccccc2O)nc2ccccc12	21%
O=S(=O)(Nc1ccc2nc(N3CCOCC3)sc2c1)c1ccc(Cl)cc1	3%
CCC(C)(C)NC(=O)C(c1cccs1)N(CC1CCCO1)C(=O)Cn1nnc2ccccc21 (centres undefined)	9%
CCCCn1nnnc1NCc1ccc(C)s1	1%
CC(C)(Oc1ccc(Cl)cc1)C(=O)OCC(=O)N1CCN(c2ccccc2)CC1	-15%
Cc1ccc2cc(CCNC(=O)c3cc4ccccc4o3)c(=O)[nH]c2c1C	-2%
CCOC(=O)C1CCCN(C(=O)c2ccccc2SCCOC)C1 (centres undefined)	-15%
CN1Cc2cc(C(=O)c3ccccc3O)cnc2NC1=O	?
CCN1C(=O)[C@H]2[C@@H](c3ccc(Cl)cc3)N3C(=O)CN(CCOC)C(=O)[C@@]3(Cc3ccccc3)[C@H]2C1=O	-15%
COC(=O)CCNC(=O)Cc1c(C)n(C(=O)c2ccc(Cl)cc2)c2ccc(OC)cc12	-12%
CC(Oc1ccc(Br)cc1)C(=O)Nc1ccc(N2CCOCC2)cc1N1CCOCC1 (centres undefined)	-18%
N#CCOc1nc(N2CCCC2)nc(N2CCCC2)n1	-12%
Cc1ccc(C)c(NC(=O)Cn2c(=O)n(-c3ccc(CC(=O)NCC4CCCO4)cc3)c(=O)c3ccccc32)c1 (centres undefined)	15%
Cc1ccccc1C(=O)N1CCN(c2ccc(NC(=S)NC(=O)c3ccco3)cc2)CC1	-9%
[N-]=[N+]=NC1CC(CO)OC1n1ccc(=O)[nH]c1=O (centres undefined)	19%
COc1ccc(C=O)cc1COc1ccc(C)cc1[N+](=O)[O-]	-10%
CCCc1nnc(SCC(=O)N2CCCCC2)n1CCCOC	12%
COc1cccc(CNCC(O)(c2ccc(Cl)cc2)c2ccc(Cl)cc2)c1	4%

(continued)
canonical_smiles	VDR inhibitor
O=C(Nc1ccc2ccccc2c1)N1CCCN(CCOc2ccccc2)CC1	-16%
Cc1nnnn1/C(=C\c1ccccc1)C(=O)OCC(=O)N1CC2(C)CC1CC(C)(C)C2 (centres undefined)	?
CCOC(=O)CN1C(=O)NC2(CCCc3ccccc32)C1=O (centres undefined)	-16%
COCCNC(=O)Cn1nc(C(F)(F)F)c(Br)c1C	-5%
O=C(CSc1ccccc1)N1CCN(c2ccccc2)CC1	-14%
Cc1ccc(-n2nc3c(N4CCC(C(=O)NCCc5ccco5)CC4)nnc(C)c3c2C)cc1	-7%
O=C(CSc1nnnn1C1CCCCC1)Nc1nc2c(s1)CCCC2	-9%
CCOC(=O)CSc1cn2c(n1)CCC2	1%
O=C(O)C(C(O)c1ccccc1)[n+]1ccccc1 (centres undefined)	-7%
COc1ccc(CNC(=O)Cc2c(C)c3cc4c(C)coc4cc3oc2=O)cc1	-5%
CCC(C)(C)NC(=O)C(c1ccc(C)cc1)N(CC1CCCO1)C(=O)CCC(=O)Nc1ccccn1 (centres undefined)	3%
Cc1cccc(-c2noc(CSc3nc(-c4ccc(F)cc4)cc(=O)[nH]3)n2)c1	6%
COC(=O)C1=C(C(=O)OC)[C@@H]2N(Cc3ccccc3)c3ccccc3[C@@]23C[C@@H](C(=O)OC)N(C(=O)COCc2ccccc2)C3=N1	-10%
COc1ccc(S(=O)(=O)NCc2ccncc2)cc1OC	4%
Cc1ccc(C)c(S(=O)(=O)NCC(=O)NCc2ccco2)c1	11%
CC(=O)N1CSCC1C(=O)NNS(=O)(=O)c1cccc(C(F)(F)F)c1 (centres undefined)	8%
COc1ccccc1N1CCN(CCC(=O)Nc2cccc(Cl)c2)CC1	12%
C/C=C(\C)C(=O)O[C@H]1C[C@@]2(C)CCC(C(C)C)C2(O)CC[C@@]1(C)O (some centres undefined)	-2%
O=C(c1ccco1)N1CCC[C@@]2(CCN(c3ccncc3)C2)C1	5%
O=C(NCc1ccc(Cl)cc1)c1cnc2sc(N3CCOCC3)nn2c1=O	9%
O=C(c1cc(-c2cccs2)on1)N1CCCCC1	-8%
COc1ccccc1CN1CC(C(=O)N(C)Cc2ccncc2C)CCC1=O (centres undefined)	-18%
O=C(Cc1ccsc1)NCC(=O)Nc1ccccc1Br	-13%
O=C(CCc1nnc(CCCCc2ccccc2)o1)N1CCN(CCO)CC1	-7%
CCCCCn1c(CNC(=O)CCC)nc2ccccc21	-26%
COc1ccc(C(C)NC(=O)c2ccccc2Cl)cc1OC (centres undefined)	-16%
O=C(c1cccs1)N1CCc2ccccc2C1	6%
CCn1c(SCC(=O)c2c(N)n(C3CC3)c(=O)[nH]c2=O)nnc1-c1ccccc1OC	14%
O=C(CNc1n[nH]c(=O)[nH]c1=O)N/N=C/C=C/c1ccccc1	13%
Cc1ccc(SC(C)c2nc(-c3ccccc3)no2)cc1 (centres undefined)	3%
COc1cccc(CNC(=O)CN2C(=O)NC(Cc3ccccc3)(c3ccccc3)C2=O)c1 (centres undefined)	6%
Cc1ccc(N(C)S(=O)(=O)c2cccc(C(=O)Nc3ccc(N4CCOCC4)cc3)c2)cc1	-29%
Cc1nc(NC(=O)CSc2nnc(C)n2CC2CCCO2)sc1C (centres undefined)	-14%
CCCCSc1ncnc2[nH]ncc12	-18%
CCOC(=O)c1[nH]cc(-c2ccccc2)c1N1CCOCC1	22µM*
CCOC(=O)CNS(=O)(=O)c1cc(-c2n[nH]c(=O)c3ccccc23)ccc1C	-9%
CCOCc1nnc(NC(=O)c2cc(C(=O)OC)cc([N+](=O)[O-])c2)s1	-5%
CCCCc1nc(NCc2ccccc2)c(C#N)c2c1CCCC2	5%
CCC12CN(C(=O)c3ccc(C)cc3)CC(CC)(CN(C(=O)c3ccc(C)cc3)C1)C2=O	10%
Cc1cc(Cl)c(C)c(S(=O)(=O)N2CCN(C(=O)C3CCCO3)CC2)c1Cl (centres undefined)	-3%
CC(C)CCN1CCNC(=O)C1CC(=O)NCCCN1CCOCC1 (centres undefined)	-6%
CCC(CC)c1nnc(NC(=O)C2=COCCO2)s1	-2%
CCCOc1ccc(NC(=O)CC2C(=O)N(Cc3ccccc3)C(=S)N2Cc2cccs2)cc1 (centres undefined)	-6%
CC(=O)Nc1ccc(C(=O)N/C(=C/c2ccccc2)C(=O)Nc2cccc(C(=O)O)c2)cc1	-5%
Cc1ccc(C(=O)CSc2ccc(-c3ccncc3)nn2)cc1	4%
O=C(c1ccccc1)N1CCCCC1CCN1CCCCC1 (centres undefined)	1%
Cc1nc(N=Nc2cc([N+](=O)[O-])ccc2Cl)c(COP(=O)(O)O)c(C=O)c1O	45µM*
O=C(NCc1ccco1)C(=O)c1cn(CC(=O)N2CCCCCC2)c2ccccc12	5%
Cc1cccc(NC(=S)Nc2c(C)n(C)n(-c3ccccc3)c2=O)c1C	17%
Nc1nnn(Cc2ccccc2)n1	2%
O=C(/C=C/c1cccc(F)c1)N(c1ccccn1)C1CCCCC1	4%
Cc1ccc(-c2nc(C)c(C(=O)O)s2)cc1	19%
O=C(NCc1ccco1)c1ccc2ccccc2n1	15%
O=C(c1cccnc1)N1CCN(CCCc2ccccc2)CC1	-14%
O=C(c1cc2ccccc2o1)N1CCN(c2cccc(Cl)c2)CC1	0%
Cc1ccc(C)c(N(C(=O)CNC(=O)c2ccco2)C(C(=O)NC2CCCCC2)c2cccnc2)c1 (centres undefined)	-22%
CCNC(=O)c1sc(=S)n(-c2ccc(C)cc2)c1N	-24%
COc1cccc(NC(=O)C(C#N)Cc2ccncc2)c1 (centres undefined)	-6%
CCOc1ccc(NC(=O)N2CCC(NC(=O)c3ccco3)CC2)cc1	9%
C=CCN1C(=O)C(C)(C)N(C(=O)c2cccc([N+](=O)[O-])c2)c2ccccc21	-3%
NC(=O)C1(C(N)=O)OC1c1ccc(Cl)cc1Cl (centres undefined)	14µM*
O=C(Nc1nc(-c2ccccn2)cs1)c1cccc(S(=O)(=O)N2CCOCC2)c1	?

Ordered by SMILES length (highest first): part of the list above
canonical_smiles	VDR inhibitor
C=CCN1C(=O)C(C)(C)N(C(=O)c2cccc([N+](=O)[O-])c2)c2ccccc21	-3%
Cc1cccc(NC(=S)Nc2c(C)n(C)n(-c3ccccc3)c2=O)c1C	17%
O=C(/C=C/c1cccc(F)c1)N(c1ccccn1)C1CCCCC1	4%
NC(=O)C1(C(N)=O)OC1c1ccc(Cl)cc1Cl (centres undefined)	14µM*
Cc1ccc(-c2nc(C)c(C(=O)O)s2)cc1	19%
O=C(NCc1ccco1)c1ccc2ccccc2n1	15%

Two entries drawn at random from the list so far:
canonical_smiles	VDR inhibitor
O=C(Nc1nc(-c2ccccn2)cs1)c1cccc(S(=O)(=O)N2CCOCC2)c1	?
COc1cccc(NC(=O)C(C#N)Cc2ccncc2)c1 (centres undefined)	-6%
